High-throughput results (PubChem)
GLA inh pH 4.5 = qHTS Assay for Inhibitors of Human alpha-Galactosidase at pH 4.5; Alpha-galactosidase A (Homo sapiens), P06280; purified enzyme, 4-MU-alpha-Gal fluorescence, pH 4.5; activity change, negative = inhibition, % at 105 µM; 230,000 tested, under 10 active; AID 1467, 2008; inconclusive = small, poorly fitted or top-dose-only inhibition, or a rising curve; inactive = flat fitted curve, though single readings scatter; no compound was filed as active;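 note: 0% = full activity with enzyme and -100% = basal without enzyme; dose as in the result columns while the protocol names 77 µM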
Target sequence (P06280 whole entry, looked up): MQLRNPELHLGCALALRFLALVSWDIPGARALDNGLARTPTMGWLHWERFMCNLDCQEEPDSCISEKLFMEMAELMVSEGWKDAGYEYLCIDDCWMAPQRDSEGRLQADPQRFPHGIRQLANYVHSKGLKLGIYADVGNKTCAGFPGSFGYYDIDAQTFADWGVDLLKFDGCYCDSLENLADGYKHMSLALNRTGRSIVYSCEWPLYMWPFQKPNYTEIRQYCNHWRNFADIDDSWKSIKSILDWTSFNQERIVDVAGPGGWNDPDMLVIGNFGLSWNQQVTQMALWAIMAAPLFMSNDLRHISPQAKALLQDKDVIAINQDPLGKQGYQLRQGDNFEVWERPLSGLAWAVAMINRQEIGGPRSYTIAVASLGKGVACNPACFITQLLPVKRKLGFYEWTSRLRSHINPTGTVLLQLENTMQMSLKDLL
miR-21 reporter = qHTS Assay for Modulators of miRNAs and/orActivators of miR-21; HeLa miR-21 FLuc reporter, luciferase, 48 h; Potency, µM (titrated, usually from 38.3 µM), inactives show at the highest dose reporter change, positive = more light; 340,000 tested, under 10 active; active = well fitted rising curve with a large enough effect; inconclusive = small, poorly fitted or top-dose-only effect; inactive = no such curve, though single readings can be large or run the other way;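 note: % of control where 0% means no effect; miR-21 action dims this reporter so a rising signal means less miR-21 action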
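HeLa miR-21-FLuc reporter line, endogenous miR-21; 2000 cells/well in DMEM/10% FBS; compound titration up to ~40uM final, 48 h, 37 degree Celsius; luciferase detection reagent, 15 min lysis, CCD luminescence.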
Rango-impB inh = qHTS Assay for Inhibitors of Rango (Ran-regulated importin-beta cargo) - Importin beta complex formation | Importin subunit beta-1 (Homo sapiens), Q14974 | Rango CFP/YFP FRET sensor + importin beta, 45 min | Potency, µM (highest dose often 92.2 µM), for inactives: at the top dose inhibition of complex formation | actives 0.031% (n = 340,000) | AID 540263, 2011; active = rising FRET ratio curve, often small or poorly fitted; inconclusive = mostly compound fluorescence or quenching in the first reads; inactive = flat curves in all reads;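 note: potency is the fitted concentration of half-maximal effect; 0% = DMSO wells and 100% = buffer wells lacking importin beta; nearly all actives have a fitted effect of over 15% in size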
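Inhibition scored from the CFP 486 nm/YFP 530 nm FRET ratio 45 min after adding 0.125 microM importin beta to 50 nM Rango biosensor preincubated 5 min with compound (room temperature, PBS with DTT, Tween-20, BSA). No-importin wells as positive control.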
Rango release inh = qHTS Assay for Inhibitors of RanGTP induced Rango (Ran-regulated importin-beta cargo) - Importin beta complex dissociation. Snurportin-1 (Homo sapiens) + GTP-binding nuclear protein Ran (Homo sapiens) + Importin …. Biochemical FRET Rango-importin beta, RanGTP-induced dissociation. Potency, µM (highest dose often 46.1 µM), without a hit: at the highest dose activity change, negative = inhibition. actives 0.071% (n = 340,000); active means falling FRET ratio curve, often poorly fitted, with flat reads before Ran was added; inconclusive means other falling curves, or compound fluorescence or quenching; inactive means flat or rising ratio curve;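 note: potency is the fitted concentration of half-maximal effect; % of control where 0% means no effect; nearly all actives have a fitted effect of over 45% in size; -100% = wells without RanGTP and RCC1; the record marks most hits as doubtful in a second field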
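Quantitative HTS using a FRET biosensor: 0.1 uM Rango, 0.25 uM importin beta, 0.6 uM Ran, 2 mM GTP, 0.2 uM RCC1 final, PBS with DTT, Tween-20 and BSA. Post-read taken 45 min after Ran addition.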
An asterisk follows results filed as active. Some of the compounds tested; rates above refer to the full screens.

How did CCOC(=O)C(C)n1nc(-c2ccccc2)c2ccccc2c1=O (stereo not given) do in these assays?
GLA inh pH 4.5: 3; miR-21 reporter: 4%; Rango-impB inh: -2.1%; Rango release inh: 16%

How did O=C(Nc1ccc(-c2nc3ccccc3o2)c(O)c1)c1cc(-n2cnnc2)ccc1Cl do in these assays?
GLA inh pH 4.5: -22; miR-21 reporter: 0%; Rango-impB inh: 7.7%; Rango release inh: 9%

Results for Cc1cc(C)cc(NC(=O)c2ccc(NC(=O)c3ccco3)cc2)c1 ?
miR-21 reporter: 9%; Rango-impB inh: 1.7%; Rango release inh: 5%

Results for O=c1c2c3nc4ccccc4nc3n(/N=C/c3ccccn3)c2ncn1-c1ccccc1 ?
GLA inh pH 4.5: -6; miR-21 reporter: 15%; Rango-impB inh: 2.7%; Rango release inh: -8%

What do the screens show for `CCOc1ccc(CCNC(=O)COC(=O)c2nc3nc(C)cc(C)n3n2)cc1OCC`?
GLA inh pH 4.5: -1; miR-21 reporter: 2%; Rango-impB inh: 3.1%; Rango release inh: -1%

How did CC(C)(C#N)C(C)(C)c1nn[nH]n1 do in these assays?
GLA inh pH 4.5: -4; miR-21 reporter: 0%; Rango-impB inh: -2.8%; Rango release inh: -4%

How did CCCC(c1nnnn1C(C)(C)C)N1CCN(c2ccccc2)CC1 (stereo not given) do in these assays?
GLA inh pH 4.5: 1; miR-21 reporter: 0%; Rango-impB inh: 2.0%; Rango release inh: -2%

How did CCOc1ccc(CCNC(=O)CS(=O)Cc2nc(-c3ccc(C)cc3)oc2C)cc1 (stereo not given) do in these assays?
miR-21 reporter: 2%; Rango-impB inh: -2.6%; Rango release inh: -3%

Results for Cc1cc(C)c2c(CN3CCN(Cc4ccccc4)CC3)cc(=O)oc2c1 ?
miR-21 reporter: -3%; Rango-impB inh: -0.7%; Rango release inh: -8%

How did O=S(=O)(c1ccc(NC(=S)NC2CC2)cc1)N1CCOCC1 do in these assays?
GLA inh pH 4.5: 2; miR-21 reporter: 3%; Rango-impB inh: -4.5%; Rango release inh: -7%

Results for O=C(Cn1c(=O)n(Cc2ccco2)c(=O)c2cc(Cl)ccc21)NCC1CCCO1 (stereo not given) ?
GLA inh pH 4.5: -6; miR-21 reporter: -2%; Rango-impB inh: 0.3%; Rango release inh: -25%

How did CCOc1ccc(CCNC(=O)C2CCN(c3nnc(-n4cccc4)s3)CC2)cc1 do in these assays?
GLA inh pH 4.5: -2; miR-21 reporter: 0%; Rango-impB inh: -2.5%; Rango release inh: -27%

What do the screens show for `CN1CCN(c2ncc(CN3C(=O)c4ccccc4C3=O)s2)CC1`?
GLA inh pH 4.5: inconclusive; miR-21 reporter: 3%; Rango-impB inh: -1.2%; Rango release inh: 2%

Results for CC(=O)NC1(c2nnnn2CCOC(=O)Nc2ccc(Cl)cc2)CCCC1 ?
GLA inh pH 4.5: 4; miR-21 reporter: -2%; Rango-impB inh: -1.8%; Rango release inh: 4%

How did Cc1ccc(N/N=C(\C#N)C(=N)N2CCCCC2)cc1 do in these assays?
GLA inh pH 4.5: -18; miR-21 reporter: -67%; Rango-impB inh: 0.5%; Rango release inh: -5%

Results for C(=N\N1CCN(c2ccccn2)CC1)/c1ccccn1 ?
GLA inh pH 4.5: -19; miR-21 reporter: -58%; Rango-impB inh: 1.5%; Rango release inh: -10%

How did S=C(Nc1cccc(Cl)c1)N1CCN(Cc2ccccc2)CC1 do in these assays?
GLA inh pH 4.5: -1; miR-21 reporter: -2%; Rango-impB inh: 0.6%; Rango release inh: 2%

Results for Cc1ccc2nc(CCc3ccc(N)cc3)[nH]c2c1 ?
miR-21 reporter: -33%; Rango-impB inh: 0.8%; Rango release inh: 0%

What do the screens show for `COc1cc(N/C(N)=N/c2nc(C)cc(C)n2)cc(OC)c1`?
miR-21 reporter: 26%; Rango-impB inh: 1.7%; Rango release inh: 29%

How did Cc1ccc(-c2ccc(/C=N/NC(=O)c3ccccc3O)o2)cc1 do in these assays?
GLA inh pH 4.5: -30; miR-21 reporter: 4%

What do the screens show for `CCn1c(SCC(=O)N2CCOCC2)nc(O)cc1=O`?
GLA inh pH 4.5: -2; miR-21 reporter: -7%; Rango-impB inh: 0.4%; Rango release inh: 24%

Results for C=CCn1c(SCC(=O)NC2CCCCC2)nnc1-c1sc(N)nc1C ?
GLA inh pH 4.5: 9; miR-21 reporter: -1%; Rango-impB inh: -1.9%; Rango release inh: -7%

Results for Cc1ccc(NC(=O)CCN2CCC(C)CC2)cc1 ?
miR-21 reporter: -1%; Rango-impB inh: 0.1%; Rango release inh: -9%

How did N#CC1=C(N)n2c(s/c(=C\c3cccs3)c2=O)=C(C#N)C1c1cccs1 (stereo not given) do in these assays?
GLA inh pH 4.5: 1; miR-21 reporter: -1%; Rango-impB inh: inconclusive; Rango release inh: -27%

What do the screens show for `Nc1nc(CCl)nc(N(c2ccccc2)c2ccccc2)n1`?
GLA inh pH 4.5: 2; miR-21 reporter: inconclusive; Rango-impB inh: 3.8%; Rango release inh: 0%

What do the screens show for `O=C(CSc1cccc[n+]1[O-])Nc1ccc(Br)cc1Br`?
Rango-impB inh: -1.2%; Rango release inh: 1%

Results for O=C(NC1CC1)c1ccc2c(c1)N(Cc1ccccc1)CCS2 ?
miR-21 reporter: 10%; Rango-impB inh: -1.5%; Rango release inh: -5%

What do the screens show for `O=C(Nc1cc(C(F)(F)F)ccc1-n1cncn1)c1ccc(Cl)cc1`?
GLA inh pH 4.5: -6; miR-21 reporter: -2%; Rango-impB inh: -0.5%; Rango release inh: 8%

How did Cc1ccc(S(=O)(=O)CCc2ccncc2)cc1 do in these assays?
miR-21 reporter: 3%; Rango-impB inh: inconclusive; Rango release inh: -12%

Results for COC(=O)N/N=C\c1ccc(OC(=O)c2ccco2)cc1 ?
GLA inh pH 4.5: -11; miR-21 reporter: -5%; Rango-impB inh: 0.0%; Rango release inh: 3%

Results for COc1ccc(OCC(=O)N/N=C2\CCc3ccccc32)cc1 ?
GLA inh pH 4.5: 4; miR-21 reporter: -41%; Rango-impB inh: -5.0%; Rango release inh: 1%

How did O=C(Nc1ccccn1)C1CCN(S(=O)(=O)c2ccc(Cl)cc2)CC1 do in these assays?
Rango-impB inh: -3.4%; Rango release inh: -1%

Results for COc1ccc(-c2nnc(SCc3nnc(-c4cccs4)o3)n2CC2CCCO2)cc1 (stereo not given) ?
GLA inh pH 4.5: 5; miR-21 reporter: -4%; Rango-impB inh: -5.4%; Rango release inh: 34%

What do the screens show for `Cc1cccc(OCC(=O)Nc2ccc(S(=O)(=O)N3CCN(C)CC3)cc2)c1`?
GLA inh pH 4.5: -8; miR-21 reporter: -3%; Rango-impB inh: 1.0%; Rango release inh: -11%

Results for CCOc1ccccc1NC(=O)c1cccc2c1C(=O)N(CCOC)C2 ?
GLA inh pH 4.5: -2; miR-21 reporter: -13%; Rango-impB inh: 1.0%; Rango release inh: -6%

How did Cc1cc(=O)[nH]c(=S)n1-c1ccccc1 do in these assays?
GLA inh pH 4.5: 6; miR-21 reporter: -9%; Rango-impB inh: 0.7%; Rango release inh: 25%

What do the screens show for `COC(=O)C(NC(=O)c1ccccc1)(Nc1nc(C)cs1)C(F)(F)F` (stereo not given)?
GLA inh pH 4.5: -3; miR-21 reporter: -19%; Rango-impB inh: inconclusive; Rango release inh: -5%

What do the screens show for `CC1CC(Nc2ccccc2)c2ccccc2N1C(=O)c1ccncc1` (stereo not given)?
GLA inh pH 4.5: -4; miR-21 reporter: 7%; Rango-impB inh: 2.9%; Rango release inh: -6%

Results for CC(NC(=O)c1ccc(N(C)C)cc1)C1CC2CCC1C2 (stereo not given) ?
GLA inh pH 4.5: 3; miR-21 reporter: -21%; Rango-impB inh: -0.6%; Rango release inh: 5%

Results for COc1ccc(Cl)cc1NC(=O)CC1CCCC1 ?
miR-21 reporter: -1%; Rango-impB inh: 1.2%; Rango release inh: 19%

What do the screens show for `CCCn1c(C)cs/c1=N\C(=S)Nc1ccccc1`?
GLA inh pH 4.5: -3; miR-21 reporter: -3%; Rango-impB inh: 0.3%; Rango release inh: 11%

How did COCCN1Cc2c(sc(C)c2C)N(C(=O)c2ccccc2)C1 do in these assays?
GLA inh pH 4.5: -1; miR-21 reporter: -44%; Rango-impB inh: -2.0%; Rango release inh: -11%

What do the screens show for `COc1cc(C2C(C(=O)c3cc4ccccc4o3)=C(O)C(=O)N2c2cc(C)on2)cc(OC)c1OC` (stereo not given)?
miR-21 reporter: -4%; Rango-impB inh: inconclusive; Rango release inh: inconclusive

How did Cn1c(=O)c2[nH]c(N3CCCCC3)nc2n(C)c1=O do in these assays?
GLA inh pH 4.5: -17; miR-21 reporter: 0%; Rango-impB inh: 5.9%; Rango release inh: -3%

How did CC(C)(C)c1ccc(C(=O)c2c[nH]c(C(=O)NCCCN3CCOCC3)c2)cc1 do in these assays?
GLA inh pH 4.5: 2; miR-21 reporter: -14%; Rango-impB inh: 5.2%; Rango release inh: -2%

Compounds above that have fluorine (two):
What do the screens show for `O=C(Nc1cc(C(F)(F)F)ccc1-n1cncn1)c1ccc(Cl)cc1`?
GLA inh pH 4.5: -6; miR-21 reporter: -2%; Rango-impB inh: -0.5%; Rango release inh: 8%

What do the screens show for `COC(=O)C(NC(=O)c1ccccc1)(Nc1nc(C)cs1)C(F)(F)F` (stereo not given)?
GLA inh pH 4.5: -3; miR-21 reporter: -19%; Rango-impB inh: inconclusive; Rango release inh: -5%

Other structures
How did O=C(O/N=C1/CCCc2occc21)c1ccc(Cl)cc1Cl do in these assays?
GLA inh pH 4.5: 5; miR-21 reporter: 6%; Rango-impB inh: -0.3%; Rango release inh: 0%

How did Cc1ccccc1Cn1ccc(NC(=O)CCSc2nc(-c3ccco3)cc(C(F)(F)F)n2)n1 do in these assays?
GLA inh pH 4.5: -12; miR-21 reporter: -2%; Rango-impB inh: -1.1%; Rango release inh: inconclusive

What do the screens show for `COc1ccc(OC)c(S(=O)(=O)N(C)CC(=O)O)c1`?
GLA inh pH 4.5: 1; miR-21 reporter: 1%; Rango-impB inh: -1.4%; Rango release inh: 1%

What do the screens show for `N#C/C(=C/c1ccc(-c2ccc(S(N)(=O)=O)cc2)o1)C(=O)Nc1ccccc1`?
GLA inh pH 4.5: -5; miR-21 reporter: -9%; Rango-impB inh: inconclusive; Rango release inh: inconclusive

Results for Cc1ccc(NC(=O)c2c(F)cccc2Cl)cc1NS(C)(=O)=O ?
GLA inh pH 4.5: -6; miR-21 reporter: -9%; Rango-impB inh: -3.9%; Rango release inh: -13%

Results for CC(=O)Nc1ccc(C(=O)NNC(=O)c2cccc(C)c2)cc1 ?
miR-21 reporter: -10%; Rango-impB inh: -1.7%; Rango release inh: 18%

Results for CC(=O)NS(=O)(=O)c1ccc(N/C(N)=N/c2nc(C)cc(C)n2)cc1 ?
miR-21 reporter: 2%; Rango-impB inh: 1.3%; Rango release inh: 10%

Results for CC(C)(C)NC(=O)NC(=O)CN1CCN(S(=O)(=O)c2ccc3c(c2)OCCO3)CC1 ?
GLA inh pH 4.5: 2; miR-21 reporter: 0%; Rango-impB inh: -7.7%; Rango release inh: -2%

Results for CSc1nc2sc3c(c2c(=O)[nH]1)CCCC3 ?
GLA inh pH 4.5: 2; miR-21 reporter: -17%; Rango-impB inh: 0.4%; Rango release inh: 0%

How did NC(=O)C1CCN(C(=O)CSc2ccccn2)CC1 do in these assays?
GLA inh pH 4.5: 1; miR-21 reporter: -7%; Rango-impB inh: inconclusive; Rango release inh: -26%

What do the screens show for `Cc1ccc(C(=O)Nc2ccc(N3CCCC3)cc2)cc1`?
GLA inh pH 4.5: -2; miR-21 reporter: -41%; Rango-impB inh: -0.5%; Rango release inh: 1%

How did O=C(Nc1nc(-c2nc3ccccc3s2)cs1)c1ccco1 do in these assays?
GLA inh pH 4.5: -2; miR-21 reporter: -39%; Rango-impB inh: 0.1%; Rango release inh: -8%
